# NPYLR7 agonist: activates Aedes aegypti NPYLR7 receptor | activation, % at 10 µM | actives 0.15% (n = 270,000) | HEK293T NPYLR7/Galpha15, GCaMP6s calcium fluorescence; in the data active means activation above about 40%;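 further: 0% = vehicle and 100% = reference agonist at the receptor; some compounds past the cut are filed as inactive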
# NPYLR7 agonist max-min: recorded beside NPYLR7 agonist, whose call it bears; activation, %; measured here: Max-Min RFU normalised activation; some inactives read as strong as hits;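 span of the calcium signal over five minutes; 0% = vehicle and 100% = native peptide agonist; compound fluorescence can raise it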
# An asterisk follows results filed as active; & = joins results of further samples. This is a subset, so the mix of outcomes need not match the whole.
# Start of the data: the first three entries (preview)
SMILES | NPYLR7 agonist max-min | NPYLR7 agonist
O=C(c1c(F)c(F)cc(F)c1F)N1CCN(Cc2cc(=O)c(OCc3ccc(F)cc3)co2)CC1 | -1.4 | 5.0
COCC(=O)Nc1ccc(N2CCN(C(=O)c3ccco3)CC2)nc1 | 3.4 | -6.3
CN1CCC2(CC1)CN(C(=O)c1cnnn1-c1ccccc1)CCN2C | -5.0 | 2.2

# All compounds of this part, from the first entry:
SMILES | NPYLR7 agonist max-min | NPYLR7 agonist
O=C(c1c(F)c(F)cc(F)c1F)N1CCN(Cc2cc(=O)c(OCc3ccc(F)cc3)co2)CC1 | -1.4 | 5.0
COCC(=O)Nc1ccc(N2CCN(C(=O)c3ccco3)CC2)nc1 | 3.4 | -6.3
CN1CCC2(CC1)CN(C(=O)c1cnnn1-c1ccccc1)CCN2C | -5.0 | 2.2
CC(C(=O)Nc1ccccc1F)N1CCc2sccc2C1 (stereo not drawn) | 1.8 | 4.7
CC1(Cc2ccc(Cl)s2)C(=O)Nc2ccc(-c3ccc(F)c(Cl)c3)cc21 (stereo not drawn) | -0.5 | 0.8
N#CC(C#N)=Cc1ccc(-c2ccc(SC(F)F)cc2)o1 | 6.7 | 7.4
CC1(C2CC2)NC(=O)N(Cc2cc(=O)n3ccsc3n2)C1=O (stereo not drawn) | 5.3 | 3.7
CCCc1ccc(C(=O)N2CCC(S(N)(=O)=O)C2)cc1 (stereo not drawn) | 6.5 | 9.7
O=C(Nc1ccc(-c2cscn2)cc1)C1CCCN(C(=O)CCN2CCCO2)C1 (stereo not drawn) | 3.4 | 8.9
Cc1c(C(C)NC2CCCC2)cnn1-c1cccc(F)c1 (stereo not drawn) | -3.6 | 1.5

# Retrieved by structure from the entries so far (5):
SMILES | NPYLR7 agonist max-min | NPYLR7 agonist
CCCc1ccc(C(=O)N2CCC(S(N)(=O)=O)C2)cc1 (stereo not drawn) | 6.5 | 9.7
CC1(C2CC2)NC(=O)N(Cc2cc(=O)n3ccsc3n2)C1=O (stereo not drawn) | 5.3 | 3.7
CN1CCC2(CC1)CN(C(=O)c1cnnn1-c1ccccc1)CCN2C | -5.0 | 2.2
N#CC(C#N)=Cc1ccc(-c2ccc(SC(F)F)cc2)o1 | 6.7 | 7.4
Cc1c(C(C)NC2CCCC2)cnn1-c1cccc(F)c1 (stereo not drawn) | -3.6 | 1.5

# Additional results follow:
SMILES | NPYLR7 agonist max-min | NPYLR7 agonist
Cc1ccc(-n2nnc3c(N4CCN(S(=O)(=O)c5cccs5)CC4)ncnc32)cc1 | -19.0 | -13.4
Cc1ccc(-c2cnc(C(O)c3ccc(Cl)c(F)c3)[nH]2)cc1 (stereo not drawn) | -4.1 | -1.6
O=C(c1cc(COc2ccc3ncccc3c2)on1)N1CCCC(OCc2ccccn2)C1 (stereo not drawn) | -1.6&3.5 | -6.5&9.6
CCCNC(=O)COc1ccc2ccc(OC)cc2c1 | -3.2 | -1.3
O=C(O)CSc1nc2c(c(C(F)(F)F)n1)CCc1ccccc1-2 | 8.7 | 14.6
CCc1ccc(C2c3cccn3CCCN2CCC(C)C)cc1 (stereo not drawn) | 10.0 | -0.9
CC(C)N(C(=O)C1CCN(C(=O)c2ccc(C(F)(F)F)cc2)CC1)c1cnn(C)c1 | -8.4 | -8.1
CC(C)CCC1(C)NC(=O)N(Cc2cc(=O)n3ccsc3n2)C1=O (stereo not drawn) | -3.4 | -2.0
Cc1nn(CC(=O)Nc2c(F)cc(F)cc2Br)c(C)c1[N+](=O)[O-] | -10.4 | -5.5
O=C(CSc1ccc2nnc(-c3ccccn3)n2n1)N1CCOCC1 | 1.8 | 0.9
C=CCn1c(=O)c2c(nc3n2CC(C)=NN3Cc2cccc3ccccc23)n(C)c1=O | 10.8 | 3.6
CS(=O)(=O)N1CCCCC1C(=O)O (stereo not drawn) | 4.0 | 1.6
CC1CN(Cc2csc(NC(=O)c3ccc(Br)cc3F)n2)CC(C)O1 (stereo not drawn) | 3.4 | 11.5
C#CCOCC(O)CNC(c1nc(-c2ccc3c(c2)OCO3)no1)C(C)CC (stereo not drawn) | 7.2 | 3.4
Cc1nnc(CNC(=O)c2ccc3nsnc3c2)o1 | 11.8 | 13.7
CC1CN(C)CCN1CC(=O)NCC1CCCc2ccccc21 (stereo not drawn) | 5.0 | 10.2
Cc1nc(CN)cc(NCCNc2ccccc2)n1 | 9.8 | 16.5
CCCCC(CC)C(=O)Oc1ccc(-c2nc3cc(C)ccn3c2NC(C)(C)CC(C)(C)C)cc1OC (stereo not drawn) | 10.3 | 6.5
CCC(=O)N1c2ccccc2N=C2CC(C)(C)CC(=O)C2C1c1ccccn1 (stereo not drawn) | 2.8 | 4.4
COc1cccc(CC(=O)NC2CC(=O)N(Cc3ccccc3Cl)C2)c1 (stereo not drawn) | 9.6 | 23.8

# In a second layout: entries from further up.
# Every second line gives: NPYLR7 agonist max-min | NPYLR7 agonist
- CC1(Cc2ccc(Cl)s2)C(=O)Nc2ccc(-c3ccc(F)c(Cl)c3)cc21 (stereo not drawn)
→ -0.5 | 0.8
- N#CC(C#N)=Cc1ccc(-c2ccc(SC(F)F)cc2)o1
→ 6.7 | 7.4

# Next entries follow:
SMILES | NPYLR7 agonist max-min | NPYLR7 agonist
CCSc1nnc2c(=O)[nH]c(=O)[nH]c2n1 | -1.1 | 0.8
Cc1nccn1-c1ccc(NC(=O)C2CCCN(Cc3ccsc3)C2)cc1 (stereo not drawn) | 9.4&-4.0 | 18.7&-4.3
CCCCCCCCn1c(CN2CCOCC2)nc2c1c(=O)n(C)c(=O)n2C | -8.2 | -4.7
CC(C)(C)C1CCC(C(=O)Nc2ccc(/C=C/C(=O)O)cc2)CC1 (stereo not drawn) | 4.2 | 11.5
Cc1ccccc1C1(CC(=O)N2CCN(CC(=O)NC(C)C)CC2)CC(=O)N(CCN(C)C)C1=O (stereo not drawn) | 1.2 | 4.9
O=C1C(=Cc2c(NCCO)nc3ccccn3c2=O)SC(=S)N1Cc1ccccc1 | 10.3 | 9.7
COc1cccc(COC(CN2CCN(C(=O)CCc3ccccc3)CC2)c2ccc(Cl)cc2)c1 (stereo not drawn) | -6.5 | -3.2
O=C(NCc1csc(-c2cnccn2)n1)c1cccc2ccnn12 | -4.6 | -1.0
CN(C)C(=O)CN(C)C(=O)c1ccc(F)cc1 | 5.3 | 4.8
O=C(NCc1cccnc1)c1cccc(Nc2c(Oc3ccc(F)cc3)cnn(-c3ccc(F)cc3)c2=O)c1 | 16.1 | 7.1

# Profiles, quoted from the list. Screens in order: NPYLR7 agonist max-min | NPYLR7 agonist
# Listed for `N#CC(C#N)=Cc1ccc(-c2ccc(SC(F)F)cc2)o1` = 6.7 | 7.4
# Listed for `CN1CCC2(CC1)CN(C(=O)c1cnnn1-c1ccccc1)CCN2C` = -5.0 | 2.2
# Listed for `CS(=O)(=O)N1CCCCC1C(=O)O` (stereo not drawn) = 4.0 | 1.6

# (list continues)
SMILES | NPYLR7 agonist max-min | NPYLR7 agonist
CCOC(=O)C1CCCCN1CC(=O)N1N=C(c2ccccc2Cl)CC1c1ccc(OC)cc1OC (stereo not drawn) | 14.9 | 14.2
C=CCNC(=O)C(NC(=O)c1ccc(OC)cc1)C1CCN(C(=O)c2ccccc2F)CC1 (stereo not drawn) | 2.9 | -5.0
CN1CCC=C(CN(C(=O)c2ccc(C(F)(F)F)cc2)C2CC2)C1 | 2.0 | 0.1
Cc1ccc(C(=O)N(Cc2nccn2Cc2c(C)cc(C)cc2C)CC2CC2)cc1 | 18.9 | 15.4
Cn1nnc2c(Nc3ccc(Oc4ccccc4)cc3)ncnc21 | 1.1 | 10.5
CCc1[nH]n(-c2ccc(OC)cc2)c(=O)c1C1=C(N2CCOCC2)C(=O)N(Cc2ccccc2)C1=O | 26.9 | 26.7
CC(=O)NC1=NN(C(C)=O)C(c2sccc2C)S1 (stereo not drawn) | -1.9 | 1.0
COc1ccc(OC)c(NC(=O)CCC(=O)c2ccc(SC)cc2)c1 | -2.2 | 3.4
COc1ccc(CC2CN(C(=O)CCc3ccco3)CCO2)cc1 (stereo not drawn) | -0.7 | 1.0
Cc1ccccc1C(=O)NC1CCN(c2ccccc2C(=O)N2CCN(C3CCCCCC3)CC2)CC1 | 28.2 | 23.4
O=C(O)Cc1csc(SCc2ccc(Cl)cc2)n1 | -2.1 | -0.2
O=C(/C=C/c1ccccc1Cl)N1CCN(c2nccc(-c3ccc(Oc4ccccc4)cc3)n2)CC1 | 10.9 | 12.4
O=C(O)c1ccc(OCc2ccccn2)c(Cl)c1 | -5.6 | -5.5
O=C(NCc1ccccc1N1CCCC1)c1c(O)cc(F)cc1F | 5.9 | 3.6
C=CCc1cccc(C=NNc2ccc3ccccc3n2)c1O | 7.9 | 6.6
COC(=O)c1ccccc1-n1ncc(NCc2ccc(C)cc2C)c(Cl)c1=O | 6.3 | 5.4
CC(O)CCn1cnc(-c2ccccc2)c1-c1cnc(N(C)C)s1 (stereo not drawn) | 2.9 | 5.7
Cc1ccc(S(=O)(=O)N2CCC3(CC2)SCCN3C(=O)c2ccc(Cl)cc2)cc1 | 11.4 | -3.1
COC(=O)Nc1ccc(S(=O)(=O)N2CCCC(C(=O)N3CCCC(C(F)(F)F)C3)C2)cc1 (stereo not drawn) | -10.7 | -6.4
COc1ccc(S(=O)(=O)N2CCc3nc(-c4ccccc4)nc(N4CCOCC4)c3C2)cc1 | 3.3 | -7.1
CCCn1c(=S)[nH]c2sc(CC)cc2c1=O | 3.8 | 6.8
O=c1ccnc2sc(N3CCN(CC4CC4)CC3)nn12 | 10.7 | 13.0

# Compound activity from PubChem BioAssay.
